# gsp ag – agonists of gsp mutant (McCune-Albright syndrome); gsp mutant cells, cAMP HTRF, 30 min; control for the full effect not named in the record; 340,000 tested, 0.13% active; Potency, µM (doses to about 76.9 µM), inactives show at the highest dose activation (cAMP increase), most hits filed as activators; AID 624287; active = well fitted activation curve with a large enough effect; inconclusive = small, poorly fitted or top-dose-only effect, or another doubt; inactive = no such curve, though single readings can be large or run the other way; cell line not stated here;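 further: phosphodiesterase inhibitor Ro 20-1724 added with compounds to block cAMP breakdown; potency means the concentration at half of the fitted maximal effect; nearly all actives have a fitted effect of over 60% in size; about a fifth of the inactives were tested at one dose only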
#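 Cells in DMEM/10% FBS with G418 were pretreated with compounds in DMSO plus […] (300 uM stock) for 30 min at 37C. cAMP was measured by HTRF (cAMP-d2 plus anti-cAMP antibody-K) after 30 min at room temperature.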
# ClpP mod – qHTS Assay for Activators of ClpP; purified B. subtilis ClpP, FRET peptide cleavage, 20 min; ATP-dependent Clp protease proteolytic subunit (Bacillus subtilis (strain 168)), P80244; Potency, µM (series often up to 57.5 µM), for inactives: at the highest dose activity change, negative = active; 340,000 tested, 1.9% active; active = well fitted falling curve with a large enough effect; inconclusive = small, poorly fitted or top-dose-only effect; inactive = no such curve, though single readings can be large or run the other way; further: potency means the concentration at half of the fitted maximal effect; the source files actives as falling curves though it sought activators and does not explain the sign; nearly all actives have a fitted effect of over 65% in size; many hits overshoot -100%
# Target sequence (P80244 whole entry, looked up): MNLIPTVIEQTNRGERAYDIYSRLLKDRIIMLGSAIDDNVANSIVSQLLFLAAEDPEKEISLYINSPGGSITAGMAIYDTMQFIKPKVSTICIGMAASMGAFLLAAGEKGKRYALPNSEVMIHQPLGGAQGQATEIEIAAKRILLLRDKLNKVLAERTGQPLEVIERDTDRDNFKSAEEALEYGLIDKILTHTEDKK
#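 ClpP 10 microg/mL final, pH 8 Tris/KCl buffer with BSA, glycerol, Tween-20; compound pinned in; FRET-FV substrate; RT 20 min; Ex320/Em430; ΔFRET vs ADEP 5.8 microM, DMSO, no enzyme.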
# Menin MLL FP FL – displaces fluorescein MLL peptide from human menin. AID 1766. 290,000 tested, under 10 active. Fluorescence polarization, fluorescein-MLL peptide displacement from menin. FP activity change, % at 61.4 µM; inconclusive = falling polarisation curve, or a change in total fluorescence; inactive = total fluorescence flat and polarisation flat or rising; no compound was filed as active; the % refers to the polarisation; negative = inhibition;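 further: % of control where 0% means no effect; inhibitors lower the polarisation; unlabelled MLL peptide was the positive control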
# gsp antag – antagonizes gsp, the McCune-Albright syndrome mutation; gsp-mutant cells, cAMP HTRF, 30 min; control for the full effect not named in the record; Potency, µM (top dose mostly 76.9 µM), for the others: at the top dose activity change, negative = inhibition, hits mostly inhibitors; 340,000 tested, 0.4% active; AID 624288; active = falling curve of any shape with a large fitted effect; inconclusive = falling curve, mostly with a smaller effect; inactive = flat or rising curve; cell line not stated here;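 further: intracellular cAMP measured with PDE inhibitor Ro 20-1724 present during compound exposure; potency means the concentration at half of the fitted maximal effect; on the % scale 0 is the no-effect control and ±100 the full control effect; nearly all actives have a fitted effect of over 65% in size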
#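 HTRF cAMP read-out (cAMP-d2 plus anti-cAMP antibody-K in lysis buffer, 30 min RT). Before lysis, cells are exposed to compounds with […] for 30 min at 37C in DPBS containing Ca/Mg, BSA and Tween 20.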
# TRPV1 PAM – human TRPV1 potentiation; Q8NER1; AID 540277; TRPV1-expressing cells, Fluo-8 calcium influx, capsaicin EC20 potentiation; host cell line not named in the record; control for the full effect not named in the record; 320,000 tested, 0.02% active; potentiation, % at 8.33 µM; active means potentiation above 80%; inconclusive means 30% to 80%; inactive means below 30%; further: 0% is about no effect
#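 TRPV1-expressing cells were cultured overnight at 35.5C and loaded with Fluo-8 calcium dye for 40 to 90 min at room temperature. After a 10 s baseline, compound was added and calcium influx was read kinetically for 3 min (ex 480/em 520 nm).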
# D2 PAM – positive allosteric modulators of human D2 dopamine receptor. P14416. DiscoveRx D2 beta-arrestin cells, luminescence, 90 min; 100% = 57 uM dopamine signal. 360,000 tested, 0.23% active. AID 624464. potentiation, % (concentration not given with the values); active = potentiation of 50% or more; inconclusive = 30% to 50%; inactive = 30% or less;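 further: compound concentration not given in the record; tested on top of an EC20 dose of dopamine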
# Target sequence (P14416 whole entry, looked up): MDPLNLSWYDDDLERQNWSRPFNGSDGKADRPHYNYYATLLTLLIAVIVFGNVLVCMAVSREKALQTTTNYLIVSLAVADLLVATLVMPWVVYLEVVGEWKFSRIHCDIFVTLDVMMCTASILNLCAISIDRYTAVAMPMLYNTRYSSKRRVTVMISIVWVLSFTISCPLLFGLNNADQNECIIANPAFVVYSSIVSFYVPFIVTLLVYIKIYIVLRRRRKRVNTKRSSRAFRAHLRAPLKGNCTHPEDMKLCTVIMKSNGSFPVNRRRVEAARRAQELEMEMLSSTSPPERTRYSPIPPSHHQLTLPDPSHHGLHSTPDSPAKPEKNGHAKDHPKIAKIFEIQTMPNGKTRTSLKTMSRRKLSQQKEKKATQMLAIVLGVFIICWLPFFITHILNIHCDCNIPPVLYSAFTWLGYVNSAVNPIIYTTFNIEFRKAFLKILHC
#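 PathHunter D2 cells, attached overnight at 37 deg C, received compound in DMSO plus dopamine at EC20 (50 nM final) for 90 min at 37 deg C. Beta-arrestin recruitment was read as luminescence after 1 h with detection reagent at ambient temperature.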
# Sfp PPTase inh – blocks B. subtilis Sfp PPTase activity. 310,000 tested, 3.5% active. AID 1490. Q9F4F7. Biochemical Sfp PPTase activity, qHTS. Potency, µM, inactives show max response, negative = inhibition, actives largely listed as inhibitors; active means well fitted inhibition curve with a large enough effect; inconclusive means small, poorly fitted or top-dose-only effect, or another doubt; inactive means no such curve, though single readings can be large or run the other way;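 further: the enzyme is Sfp with the accession as filed and its product quenches rhodamine fluorescence; potency means the concentration at half of the fitted maximal effect; 0% = enzyme reaction without inhibitor and -100% = no enzyme wells; top concentration of the series not given in the record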
#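 Fluorescence-quenching assay with 15 nM Sfp, 5 uM rhodamine-CoA and 12.5 uM BHQ-2-labelled ybbR peptide in pH 7.6 Hepes/MgCl2 buffer. Enzyme was pre-incubated with compound for 15 min at room temperature. Rate was taken from the 30-min fluorescence change (525/598 nm).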
# Active calls of the source: *; u = inconclusive; x = no result given; & = joins results of further samples; [ ] = dose if it differs, or a comment. Outcome played no part in choosing rows. Share with any hit: about 5.1%.
item	canonical_smiles	gsp ag	D2 PAM	Sfp PPTase inh	TRPV1 PAM	gsp antag	ClpP mod	Menin MLL FP FL
1	Cc1[nH]c(=O)[nH]c(=O)c1S(=O)(=O)N1CCCC(C(=O)N2CCN(c3cccc(C(F)(F)F)c3)CC2)C1 (stereo unspecified)	16%	3	9%	14	1%	x	-0.8
2	O=C1CN(C(=O)CC2C(=O)NCCN2Cc2ccccc2C(F)(F)F)CCN1 (stereo unspecified)	3%	-4	5%	-4	1%	-12%	x
3	C/C(=N\NC(=O)COc1ccc(C#N)cc1)c1ccc(N2CCOCC2)cc1	-17%	-4	-6%	2	-1%	-24%	9.4
4	O=C(NCc1ccccc1Cl)c1cnccc1C(F)(F)F	49%[15.4 µM]	-4	18%	-2	10%	-0.2%	4.3
5	CC(=O)N(CCc1ccccc1)Cc1cc2cc(C)ccc2[nH]c1=O	-32%[inhibitor]	-5	5%	-11	-1%	u	0.2
6	CCSc1nnc(N2C(=O)CC(c3ccsc3)C3=C2CC(C)(C)CC3=O)s1 (stereo unspecified)	u	-1	9%	24	7%	0.7%	19
7	CCOC(=O)c1c(C)oc2ccc(OS(C)(=O)=O)cc12	-55%[inhibitor]	-11	-5%	-1	-3%	1.7%	-2.4
8	COc1ccc(-c2cc(=O)oc3c(C)c(O)ccc23)cc1	2%	20	3%	-3	-27%	-8.1%	0.1
9	CC(C)=C1C(=O)NN(c2ccc(C)c(Cl)c2)C1=O	-3%	-7	14%	0	u	-3.1%	3.5
10	CC1Cc2ccccc2N1C(=O)CSc1ccccc1 (stereo unspecified)	-39%[inhibitor]	5	-20%	-3	-19%	1.1%	1.8
11	CC1CCCN(C(=O)Cn2nnc(-c3ccc(F)cc3)n2)C1 (stereo unspecified)	-19%	0	8%	-14	8%	x	-3.4
12	Cc1cccc(-c2ccc3[nH]c4c(c3c2)CCN2C[C@H]3[C@H](C)ON(C)[C@H]3C[C@@H]42)c1	23%	-2	x	x	x	-13%	x
13	O=C(NNc1nc2ccccc2s1)Nc1ccc(Cl)c(Cl)c1	-8%	-14	56µM*	7	-7%	-1.3%	-3.6
14	COC(=O)C1C(O)=C(C=Nc2ccc3ccccc3c2)C(=O)CC1(C)C (stereo unspecified)	14%	-2	2%	-17	13%	1.3%	-3.4
15	CC(C)NC(=O)NC(=O)COc1c(F)c(F)cc(F)c1F	4%	-15	0%	1	5%	-7.2%	1.8
16	Cc1ccc(CN(C)C(=O)CN2C(=O)NC3(CCCc4ccccc43)C2=O)c(C)c1 (stereo unspecified)	u	-18	x	2	-4%	-0.6%	x
17	COc1ccc(-c2c(C(=O)O)nc3ccccc3c2C(=O)O)cc1	15%	-10	-5%	-20	3%	-3.3%	0.9
18	Cc1cc(OCc2cc(C(=O)N(C)C3CCOC3)no2)cc(C)c1Cl (stereo unspecified)	25%	-4	-4%	9	-21%	x	x
19	COc1ccccc1/C(O)=C(\C#N)c1nc2ccccc2[nH]1	19%[15.4 µM]	-5	13%	12	-6%	x	0.2
20	CCN(CC)CCCN(Cc1cc2ccc(C)c(C)c2[nH]c1=O)C(=O)NC1CCCCC1	-8%	-13	3%	4	13%	28µM*	0.9

# Sfp PPTase inh: what is marked active above.
nr | mol | gsp ag | D2 PAM | Sfp PPTase inh | gsp antag | Menin MLL FP FL
13 | O=C(NNc1nc2ccccc2s1)Nc1ccc(Cl)c(Cl)c1 | -8% | -14 | 56µM* | -7% | -3.6

# Whole records, looked up by structure. Order of values: gsp ag | D2 PAM | Sfp PPTase inh | TRPV1 PAM | gsp antag | ClpP mod | Menin MLL FP FL
# Record of CC(C)NC(=O)NC(=O)COc1c(F)c(F)cc(F)c1F : 4% | -15 | 0% | 1 | 5% | -7.2% | 1.8
# Record of Cc1ccc(CN(C)C(=O)CN2C(=O)NC3(CCCc4ccccc43)C2=O)c(C)c1 (stereo unspecified) : u | -18 | x | 2 | -4% | -0.6% | x

# (more compounds)
item	canonical_smiles	gsp ag	D2 PAM	Sfp PPTase inh	TRPV1 PAM	gsp antag	ClpP mod	Menin MLL FP FL
21	CC(NCC(O)COc1ccc(Br)cc1)c1ccccc1 (stereo unspecified)	-27%	-28	8%	6	26%	0.1%	-0.3
22	Cc1cc(=O)[nH]c(N2CCCCC2)n1	13%	1	x	x	2%	-1.1%	x
23	Cc1ccc(NC(=O)C(C)Sc2nc3nc(C)cc(C)n3n2)cc1 (stereo unspecified)	27%	-3	x	7	-5%	0.5%	x
24	COc1ccc(S(=O)(=O)N2CCCCCC2)cc1Br	10%	-15	-6%	-13	-6%	1.8%	0.1
25	Cc1cc(C)c(C#N)c(SCc2c(F)cccc2[N+](=O)[O-])n1	12%	-27	2%	-2	-6%	-1.8%	-0.2
26	CC1CCCCC1NC(=S)Nc1ccc(SC(F)F)cc1 (stereo unspecified)	-32%[inhibitor]	8	-3%	-17	-3%[15.4 µM]	-2.9%	-0.8
27	N/C(=N\OCC(=O)Nc1ccc(F)c(Cl)c1)c1ccccc1	-3%[15.4 µM]	-22	x	x	4%	-16%	x
28	Cc1csc(/C(C#N)=N/O)n1	0%	3	-17%	28	-4%	-0.2%	-0.7
29	Cc1cc(S(=O)(=O)Nc2ccc(C(=O)NCCCN3CCCC3=O)cc2)ccc1F	-4%[15.4 µM]	-19	x	u	-2%	0.2%	x
30	CCOC(=O)C1=C(COC(=O)/C=C/c2ccco2)NC(=O)NC1C (stereo unspecified)	11%[15.4 µM]	-18	x	6	13%	x	x
31	COc1ccccc1NC(=S)NNC(=O)c1nn(C)c(C)c1Br	-20%[15.4 µM]	-13	2%	2	-12%	1.4%	1.2
32	CSc1ccc(-c2ccco2)nn1	-1%[15.4 µM]	-5	32µM*	-11	14%	1.4%	2.0
33	NC(=O)c1cccnc1Oc1cccc(Cl)c1	3%	-6	-7%	5	13%	-1.7%	4.8
34	CCCCc1nc(SCC(=O)N2CCCC2)c2c(=O)n(C)c(=O)n(C)c2n1	u	-12	2%	11	-12%	-3.8%	0.7
35	COc1cc(OC)cc(C(=O)NNC(=O)C2CSC3(C)CCC(=O)N23)c1 (stereo unspecified)	2%	2	x	22	7%	-4.3%	x
36	CCOc1ccc(NC(=O)CC2C(=O)N(c3cccc(OC)c3)C(=O)N2CCOC)cc1 (stereo unspecified)	-2%	-10	-9%	17	-11%	0.2%	5.6
37	CCOC(=O)CC1C(=O)NCCN1C(=O)c1ccc(Cl)cc1Cl (stereo unspecified)	2%	7	8%	-19	6%	x	-3.6
38	Cc1occc1C(=O)NNC(=O)c1nn(C)c(=O)c2ccccc12	u	0	-4%	-2	6%	x	5.9
39	CCc1ccc(NC(=O)CSc2ccc(-c3cccnc3)nn2)cc1	14%	-10	6%	-9	-6%	-1.2%	4.1
40	COc1ccc(C2C(C#N)=C(N)Oc3n[nH]c(-c4ccccn4)c32)c(OC)c1OC (stereo unspecified)	u	-9	-2%	0	11%	2.6%	-0.5
41	O=C(N/N=C/C=C\c1ccco1)c1cccnc1	11%	15	32µM*	1	-2%	-5.1%	7.8
42	COc1cc(O)c(C(CC(=O)N2CCN(c3ccccc3)CC2)c2cc(OC)c(OC)c(OC)c2)c(OC)c1 (stereo unspecified)	x	-2	-3%&4%	-7	-12%	0.5%	3.5&1.6
43	COC(=O)[C@@H]1C[C@H]1[C@@H](NC(=O)c1cc(C)on1)c1ccccc1	-28%	-11	27%	x	6%	3.0%	-5.6
44	CCCc1cc(=O)oc2cc(C)cc(OCC(=O)O)c12	7%	18	18%	6	10%	16µM*	-3.5
45	O=C(CCl)Nc1ccccc1C(=O)Nc1ccc2c(c1)OCO2	-15%[15.4 µM]	-3	6%	-5	-2%	x	3.4
46	c1ccc(COC2COC3C(OCc4ccccc4)COC23)cc1 (stereo unspecified)	5%[15.4 µM]	-4	x	x	3%	u	x
47	CC(/C=N/n1cnnc1)=C\c1ccco1	-1%	5	-21%	1	5%	-3.3%	-0.3
48	O=C(COC(=O)C1CCC(=O)N1)Nc1ccccc1Br (stereo unspecified)	17%	-5	23%	1	8%	-0.3%	-2.7
49	O=C(CSc1ncnc2c1oc1ccccc12)NC1CCCCC1	u	-8	6%	10	28%	-1.3%	1.1
50	O=C(COC(=O)/C=C/c1ccccc1Cl)NC(=O)Cc1ccccc1	24%	-11	-8%	2	-13%	-2.9%	-2.1
51	O=C(NCCCn1ccnc1)/C(=C\c1cccs1)NC(=O)c1ccco1	-24%	3	11%	13	6%	u	5.4
52	CN(C)/C=C(\C(=O)c1ccc(Cl)cc1)c1nnnn1-c1ccc(Cl)cc1	20%	-8	x	x	-2%	-2.4%	x
53	Cc1cccc(-c2nc3c(c(SCC(=O)N4CCOCC4)n2)Cc2c(CO)cnc(C)c2O3)c1	0%	u	-6%	11	40µM*	0.3%	x
54	Cn1c(SCc2ccccc2[N+](=O)[O-])nnc1-c1cccnc1	-10%[15.4 µM]	-1	2%	-6	9%	x	-0.2
55	COc1ccc(-n2nnnc2S(=O)(=O)CC(=O)N2CCCCC2)cc1	u	-12	-13%	8	10%	-0.7%	3.6
56	CCCN(CC(=O)Nc1ccccc1OC)CC(=O)c1c(N)n(Cc2ccccc2)c(=O)n(C)c1=O	27%	-21	x	x	-2%	-1.2%	x
57	CCN(CC)S(=O)(=O)c1cccc(NC(=O)c2ccc(-n3nc(C)cc3C)cc2)c1	-6%	3	12%	-5	u	0.7%	-1.1
58	Cc1cc(C)c(NC(=O)CNC(=O)Cc2sc(C)nc2-c2ccc(F)cc2)c(C)c1	u	-24	x	u	10%	-0.4%	x
59	C[C@]12CC[C@@H]3c4ccc(O)cc4CC[C@H]3[C@@H]1C[C@@H](O)[C@@H]2O	x	0	7%	5	6%	-0.3%	0.2
60	COc1ccccc1OCC#CCSc1ncccn1	25%	-20	u	11	14%	-0.6%	3.9
61	C#CC(c1ccccc1)(c1ccccc1)n1ccnc1	-7%	-13	x	x	x	2.0%	x
62	O=C(CCC(=O)N1CCN(S(=O)(=O)c2ccc(Cl)cc2)CC1)NCc1ccccc1	1%	0	23%	24	-27%	-3.0%	3.2
